# Screening data from PubChem.
# N370S GC mod: inhibits or activates N370S mutant glucocerebrosidase; N370S GC spleen homogenate, 4MU-glucoside fluorescence; Potency, µM (titrated, usually from 59.4 µM), inactives show at the top dose activity change, negative = inhibition, actives largely listed as inhibitors; P04062; hit rate 0.092% among 330,000;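 also: 0% = full enzyme activity and -100% = no enzyme basal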
# FEN1 inh: human FEN1 inhibition; P39748; Recombinant FEN1 flap cleavage, fluorescence, 15 min; Potency, µM (series often up to 114 µM), inactives show at the highest dose activity change, negative = inhibition, usual class: inhibitors; hit rate 0.35% among 390,000; also: nearly all actives have a fitted effect of over 65% in size
# Target sequence (P39748 whole entry, looked up): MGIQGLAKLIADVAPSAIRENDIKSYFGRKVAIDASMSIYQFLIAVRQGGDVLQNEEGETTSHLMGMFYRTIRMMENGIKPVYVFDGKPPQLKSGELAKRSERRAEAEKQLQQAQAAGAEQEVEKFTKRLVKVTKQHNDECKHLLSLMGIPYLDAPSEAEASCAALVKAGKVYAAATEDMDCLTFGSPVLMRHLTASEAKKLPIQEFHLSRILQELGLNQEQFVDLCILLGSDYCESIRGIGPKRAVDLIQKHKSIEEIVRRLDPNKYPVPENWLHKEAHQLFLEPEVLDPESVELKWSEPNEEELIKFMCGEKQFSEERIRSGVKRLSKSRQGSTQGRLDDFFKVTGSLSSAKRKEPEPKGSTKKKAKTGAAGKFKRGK
#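 Recombinant FEN1 (10 nM) was preincubated with pin-transferred compounds for 15 min at room temperature, then flap DNA substrate (50 nM final) was added. Plates were read at 0 and 15 min, and normalized concentration–response data were fitted to a four-parameter Hill equation.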
# * hit, by the source's call; ? = inconclusive; . = no result given; & = joins results of further samples; [ ] = remark or other dose. Calls follow the shape of the dose curve; as a rule, active = well fitted curve in the direction sought with a large enough effect; inconclusive = small, poorly fitted or top-dose-only effect, or another doubt; inactive = no such curve, though single readings can be large; an effect the other way counts as inactive or inconclusive. Unless noted, % is scaled to controls: 0 for no effect and ±100 for the full control effect; potency is read from the fitted curve at half-maximal effect. These rows are one share of the data; most or all hits stand in other tables.
SMILES,N370S GC mod,FEN1 inh
O=C(CSc1nnc(-c2ccncc2)n1Cc1ccco1)c1ccc(Cl)cc1,-17%,0%
COc1cccc(NC(=O)NCc2cccn2C)c1,?,7%
O=C(Nc1ccc(F)c(Cl)c1)C1CCCN1S(=O)(=O)c1ccc(F)cc1 (centres undefined),.,1%
Cc1cc(SCc2ccc(Br)cc2)nc(=O)[nH]1,0%,9%
CC1CCCN(S(=O)(=O)c2ccc(NC(=O)CCN3C(=O)c4ccccc4C3=O)cc2)C1 (centres undefined),-9%,-12%
N#C/C(=C\c1ccc(C#N)cc1)C(=O)c1ccccc1,-6%,-3%
COc1ccc(Cn2c(CCC(=O)Nc3ccc(CC#N)cc3)nc3cccnc32)cc1,25%,-6%
CCOc1ccccc1N1CCN(Cc2ccc(OC)c(OC)c2)CC1,-7%,10%
COc1ccc(C(=O)N2CCN(Cc3ccc4c(c3)OCO4)CC2)cc1[N+](=O)[O-],14%,47%[activator]
COc1cc(C(C)=O)ccc1OCC(O)CNCC1(N2CCCCC2)CCCCC1 (centres undefined),-4%,-13%
Cc1nn(CCC(=O)NCCc2ccccc2Cl)c(=O)c2nn(-c3ccccc3)c(C)c12,?,-19%
COc1cccc(-n2c(=O)c3sc4ccccc4c3n(CC(=O)Nc3ccc(F)cc3F)c2=O)c1,.,22%
O=C(CCN1c2ccccc2Sc2ccccc21)OCC(=O)N1CCN(C(=O)c2ccco2)CC1,4%,-16%
CCN(CC)S(=O)(=O)c1ccc2c(c1)N(CC(=O)Nc1cccc(C#N)c1)C(=O)CO2,.,7%
COc1ccc2oc(=O)c(/C(C)=N/Nc3ccccc3)cc2c1,6%,-5%
CCOC(=O)CSc1ccccn1,-3%,21%
CC(C)OC(=O)C1C(=O)CC(C)(O)C(C(=O)OC(C)C)C1c1ccccc1 (centres undefined),-3%,15%
COc1ccc(N(CC(=O)NC2CCCCC2)S(=O)(=O)c2c(C)[nH]c(=O)[nH]c2=O)cc1,4µM*,-3%
COc1cc(CCC(=O)Nc2c(C(=O)N3CCN(c4ccccc4OC)CC3)oc3ccccc23)on1,7%,-17%
O=C(NCCCN1CCOCC1)C(C(=O)c1ccccc1)n1ccccc1=O (centres undefined),12%,-5%
CCN(C(=O)C(Cc1ccccc1)NS(=O)(=O)c1cccc2nsnc12)c1ccccc1 (centres undefined),.,-19%
NC(=O)CC[C@H](NC(=O)c1ccc(F)cc1)C(=O)OCC(=O)Nc1c(F)c(F)c(F)c(F)c1F,-12%,1%
COc1ccc(N2CCN(CC(O)COC(c3ccccc3)c3ccccc3)CC2)cc1 (centres undefined),-10%,2%
CCCCCCc1c(C[C@H](N)C(=O)O)o[nH]c1=O,-8%&-19%,.
Cc1onc(-c2ccccc2)c1CNS(=O)(=O)c1cccc(Br)c1,-7%,0%

# Some of these compounds in order of their number in N370S GC mod, high to low.
Structure | N370S GC mod
CCOC(=O)CSc1ccccn1 | -3%
N#C/C(=C\c1ccc(C#N)cc1)C(=O)c1ccccc1 | -6%
CCOc1ccccc1N1CCN(Cc2ccc(OC)c(OC)c2)CC1 | -7%

# Continuation.
SMILES,N370S GC mod,FEN1 inh
O=S(=O)(NCc1cccnc1)c1cccn1-c1ncc(C(F)(F)F)cc1Cl,-7%,-6%
C=CCn1c(SCC(=O)c2cccs2)nc2sc(C)c(C)c2c1=O,?,4%
Nc1ccc(C(=O)N2CCN(S(=O)(=O)/C=C/c3ccccc3)CC2)cc1[N+](=O)[O-],-10%,-6%
Cc1ccc(NC(=O)CSc2nc(C)c(Cc3ccccc3)c(=O)[nH]2)cc1C,?,-11%&16%
Cn1ncc2c(Nc3ccc(-c4ccccc4)cc3)ncnc21,8%,-1%
O=C(NC1CCOCC1)C1CCC(=O)N(CCc2cccc(F)c2)C1 (centres undefined),0%,0%
COc1cccc(NC(=O)C2C3CCC4C(CCC32)C4(Cl)Cl)c1 (centres undefined),15%,-15%
O=C(Oc1ccccc1-c1nnco1)c1ccccc1,-16%,7%
Cc1cccnc1NC(=O)c1ccc2c(c1)NC(=O)C(C)S2 (centres undefined),-18%,6%
O=C(NCc1cccnc1)C1CCCN(S(=O)(=O)c2ccccc2)C1 (centres undefined),1%,2%
COc1cc2c(cc1OC)C(C(=O)Nc1ccc(F)c(Cl)c1)CC(=O)N2 (centres undefined),7%,-11%
Cc1nn(C)cc1/C=C1\SC(=S)NC1=O,-6%,10%
Cc1cc(C)cc(NC(=S)N2CCN(c3ccccn3)CC2)c1,0%,2%
Cc1ccc(OCCCCn2ccnc2)c([N+](=O)[O-])c1,20%,3%
Cc1cc(C)nc(SCc2nc3ncccn3c2Br)n1,3%,40%[activator]
C=CCn1c(SCC(=O)N2CCN(CCO)CC2)nc2sc3c(c2c1=O)CCC3,-17%,-2%
COCCNC(=O)c1ccccc1NC(=O)c1ccccc1SC,8%,3%
COc1ccc(/C=N/NC(=O)c2cccnc2)cc1COc1ccc(NC(C)=O)cc1,-9%,-14%
CCCC(c1nnnn1C(C)(C)C)N1CCN(Cc2ccccc2OC)CC1 (centres undefined),11%,1%
CCOC(=O)CCc1c(C)nc2cc(-c3ccc(F)cc3)[nH]n2c1=O,3%,-3%
Cc1cc(C)n2nc(CC(=O)NCc3ccccc3Cl)nc2n1,15%,-1%
O=C1C2C3C=CC(C3)C2C(=O)N1c1n[nH]c(CCc2ccccc2)n1 (centres undefined),-2%,-1%
CN(CCC#N)C(=O)CSc1nc2scc(-c3ccccc3)c2c(=O)[nH]1,3%,-5%
CCOc1ccccc1NC(=O)CSc1nnc(Cn2c(=O)sc3ccccc32)n1C,2%,-9%
Cc1ccc(-c2cc(C)nc3ncnn23)cc1,24%,13%
SMILES,N370S GC mod,FEN1 inh
NC(=O)c1coc(-c2ccccc2)n1,-3%,4%
O=C(NC1CCCCCC1)c1ccc(CN2CCOCC2)cc1,0%,-2%
COc1ccc2cc(CCNC(=O)c3ccc(S(=O)(=O)N4CCCC4)cc3)c(=O)[nH]c2c1,-1%,-7%
O=C(CC1Nc2ccccc2NC1=O)Nc1cc(Cl)cc(Cl)c1 (centres undefined),.,-1%
Cc1nn(CC(=O)Nc2ccc(C(=O)N3CCCCC3)cc2)c(=O)c2ccccc12,3%,-8%
COc1ccc(CCN2C(=O)C3C4CC(C5C(C(=O)N/N=C\c6ccc(Cl)cc6)=NOC45)C3C2=O)cc1OC (centres undefined),24%,1%
COc1ccccc1N1CCN(CC(O)c2ccccc2)CC1 (centres undefined),-12%,-1%
CCCC(C)NC(=O)Cc1ccccc1[N+](=O)[O-] (centres undefined),-4%,-5%
COc1ccc2[nH]c(C(=O)Nc3cccc(C)n3)cc2c1,4%,-14%
COC(=O)c1[nH]c2cc(C)ccc2c1NC(=O)CN1CCN(c2ccccc2OC)CC1,6%,-7%
Cc1cccc(N2CCN(Cc3nc(C4CC4)no3)CC2)n1,0%,21%
CSc1cccc(NC(=O)Nc2ccc(Cl)cc2)c1,-5%,4%
CN1C(=O)CSC1=Nc1ccc(F)cc1,2%,0%
O=C(Nc1cccnc1)c1ccc(F)c(S(=O)(=O)N2CCOCC2)c1,-9%,2%
CC1=C(C(=O)Nc2cccnc2)C(c2cccnc2)n2nc(-c3cccs3)nc2N1 (centres undefined),2%,2%
COc1ccc(C)cc1NCc1cccc(OC)c1OC,27%,4%
Cc1ccc(N(CC(O)CON=C2c3ccccc3-c3ccccc32)S(C)(=O)=O)cc1 (centres undefined),7%,-13%
O=C(Cn1cc2c(n1)CCCCC2)Nc1c(F)c(F)cc(F)c1F,-17%,-4%
O=C(CSc1nnc(NC2CC2)s1)Nc1ccc(N2CCOCC2)cc1,.,-10%
CN(C)C(=O)[C@H]1C[C@@H]1[C@H](NC(=O)OCc1ccccc1)c1ccccc1,0%,.
CS(=O)(=O)N(Cc1ccccc1)c1ccc(C(=O)NC2CCCCC2O)cc1 (centres undefined),2%[2.35 µM],0%
CCOC(=O)Cc1nnc(Nc2cccc(O)c2)c2ccccc12,1%,-9%
CCc1nnc(NC(=O)CSc2nnc(-c3cccnc3)n2C)s1,-2%,-10%
CCn1c(Cc2cccn2C)nnc1SCC(=O)c1ccc(C)cc1,-6%,-1%
Cn1nc(C(F)(F)F)c(/C=N/OC(=O)c2ccccc2Cl)c1SCc1ccc(Cl)cc1,21%,-12%

# Nothing new here: entries from further up.
SMILES,N370S GC mod,FEN1 inh
CS(=O)(=O)N(Cc1ccccc1)c1ccc(C(=O)NC2CCCCC2O)cc1 (centres undefined),2%[2.35 µM],0%
CCOC(=O)Cc1nnc(Nc2cccc(O)c2)c2ccccc12,1%,-9%
CCc1nnc(NC(=O)CSc2nnc(-c3cccnc3)n2C)s1,-2%,-10%
CCn1c(Cc2cccn2C)nnc1SCC(=O)c1ccc(C)cc1,-6%,-1%
Cn1nc(C(F)(F)F)c(/C=N/OC(=O)c2ccccc2Cl)c1SCc1ccc(Cl)cc1,21%,-12%

# Four structures already listed, sorted by length of the SMILES, low to high:
SMILES,N370S GC mod,FEN1 inh
NC(=O)c1coc(-c2ccccc2)n1,-3%,4%
O=C(CSc1nnc(NC2CC2)s1)Nc1ccc(N2CCOCC2)cc1,.,-10%
CC1=C(C(=O)Nc2cccnc2)C(c2cccnc2)n2nc(-c3cccs3)nc2N1 (centres undefined),2%,2%
CN(C)C(=O)[C@H]1C[C@@H]1[C@H](NC(=O)OCc1ccccc1)c1ccccc1,0%,.

# More records
SMILES,N370S GC mod,FEN1 inh
CCCC(/C=C/c1ccc(OC(C)=O)cc1)=C1/c2ccccc2C(=O)N1c1ccccc1,.,8%
O=C1CC2(CCN(C(=O)c3cccc(Br)c3)CC2)Oc2ccccc21,-3%,-2%
CCc1ccc(-c2cc(C)no2)cc1S(=O)(=O)NCc1ccc(OC)c(OC)c1,-1%,12%
Cc1c(NC(=O)CN2C(=O)c3cccc4cccc2c34)c(=O)n(-c2ccccc2)n1C,0%,4%
C/C=C/c1ccc(OCCCNC2CCCC2)c(OC)c1,1%,3%
COc1cc(-c2coc3cc(OCc4ccccc4)c(OC)c(O)c3c2=O)cc(O)c1OC,23%,.
CCN(CCCNC(=O)C1CCCN(S(=O)(=O)c2cnc[nH]2)C1)c1ccccc1 (centres undefined),-6%,-3%&-12%
Cc1cc(C(=O)Cn2cnc3cc(F)ccc3c2=O)c(C)n1C1CC1,.,0%
Cc1cc(C)nc(SCc2cc(=O)c(OC(=O)c3ccc(S(=O)(=O)N4CCCC4)cc3)co2)n1,-16%,-8%
COCCCNC(=O)c1ccccc1Oc1ccccc1,-9%,4%
O=c1c(Oc2ccccc2F)coc2cc(OCc3cnn(-c4ccccc4)c3)ccc12,?,-12%
O=C(N/C(=C\c1cccnc1)c1nc2ccccc2[nH]1)c1cccc(Br)c1,2%,11%
CC(=O)Nc1ccc(NC(=O)CCC(=O)NCCO)cc1,5%,-19%
Cc1sc2nc(CN(C(=O)c3cccs3)C3CCCC3)[nH]c(=O)c2c1C,?,0%
Cc1ccc(C(=O)Nc2ccc(N3CCOCC3)nc2)cc1,-2%,-16%
CCN1CCN(CC(O)COC(C)C)CC1 (centres undefined),3%,-7%
CC(/C=N/NC(=O)c1ccncc1)=C\c1ccco1,-7%,-3%
O=C(C[C@@H]1C/C=C\C[C@@H](Cc2ccc(F)cc2)C(=O)OC[C@@H]2CCCN2C1=O)NCCO,.,5%
COc1ccc(C(=O)Nc2ccccc2NC(=O)c2ccco2)cc1OC,3%,-13%
Cn1c(CCNC(=O)C2CCCCC2)nc2cc([N+](=O)[O-])ccc21,-4%,-3%
CN(Cc1ccccc1)S(=O)(=O)c1nnc(NC(=O)c2ccc(F)cc2)s1,-28%,-17%
COc1ccc(/C=N/NC(=O)c2cccc(O)c2)cc1Cn1nc(C)c([N+](=O)[O-])c1C,-8%,3%
CCOC(=O)Cn1nc(C)n(-c2ccc(C)cc2)c1=O,14%,5%
O=C(N[C@@H]1C/C=C\C[C@H](CC(=O)N(CCO)Cc2ccccc2)C(=O)N[C@@H](Cc2c[nH]c3ccccc23)COC1=O)OCC1c2ccccc2-c2ccccc21,.,-11%
COc1cccc(-n2cnc3sc4c(c3c2=O)CCC4)c1,1%,-6%
SMILES,N370S GC mod,FEN1 inh
COc1ccc(C(CNC(=O)CNS(=O)(=O)c2ccc(NC(C)=O)cc2)N2CCOCC2)cc1 (centres undefined),-3%,4%
O=C(CCS(=O)(=O)c1ccccc1F)Nc1ccc(N2CCN(Cc3ccccc3)CC2)cc1,.,10%
O=C(Cn1nnc(-c2ccccc2F)n1)Nc1ccc2c(c1)OCO2,-8%,-4%
COc1ccc(S(=O)(=O)Nc2ccc3c(c2)OCO3)cc1C,21%,-9%
O=C1c2ccccc2[C@@H]2C[C@@H](O)[C@H](Nc3cccc(Cl)n3)CCN12,.,-5%
Cc1c(NS(=O)(=O)c2cccc(C(=O)Nc3ccccc3)c2)c(=O)n(-c2ccccc2)n1C,.,-4%
O=C(COC(=O)C1CCCCC1)Nc1ccccc1OC(F)F,-3%,0%
CCCC(=O)Nc1cccc(C(=O)Nc2nccs2)c1,1%,0%
Clc1ccc(-n2cccc2CN2CCc3c([nH]c4ccccc34)C2c2ccccn2)nc1 (centres undefined),-4%,0%
CCOC(=O)c1ccc(NC(=O)CN2C(=O)CN(C(C)=O)C2=S)cc1,-1%,23%
c1cn2c(NC3CCCCC3)c(-c3ccc(SC4CCCCC4)cc3)nc2cn1,1%,-19%
COc1cc(/C=C2\OC(=O)c3c(OC)cccc32)ccc1O,12%,-10%
Cc1cccnc1NC(=O)CNC(=O)COc1ccccc1,0%,-4%
Cc1cccc(NC(=O)CCNS(=O)(=O)c2cccc3nonc23)c1,18%,4%&-1%
Cc1ccc(C(=O)Nc2nc(-c3cccnc3)cs2)o1,3%,-3%
